Compound activity as filed in PubChem.
AID504770: E. coli YBA685 growth inhibition, screen for V. cholerae RctB inhibitors; 0.27% of 130,000 active; E. coli YBA685 rctB-dependent plasmid, OD600 growth, 3 h; hits give low values; z-score (no concentration beside the values);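 active = z-score under -2 on both plates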;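 also: wells of about 30 µL received 100 nL stock; score is relative to mean and SD of the test wells; the first replicate is given; strong numbers were not always called active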
CapD inh: blocks the Bacillus anthracis CapD enzyme; purified CapD enzyme, fluorescence intensity read-out; hits give low values; some hits fall short of the stated cut; z-score (no concentration beside the values); 0.23% of 140,000 active; AID 492967;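 active = z-score under -4 in either of two replicates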;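 also: stock transfer was 100 nL into about 40 µL; score is relative to mean and spread of the plate; one replicate is shown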
* hit, by the source's call; . = no result given.

entry	SMILES	AID504770	CapD inh
1	COc1ccc(CC(=O)Nc2noc3ccccc23)cc1	-0.4	0.975
2	COc1ccc2oc(=O)sc2c1	-0.9	0.38
3	Cc1cccc2cc(CN(Cc3ccco3)Cc3nnnn3CCc3ccccc3)c(=O)[nH]c12	-0.35	.
4	O=c1[nH]c(CSCCO)nc2c1C1(CCCCC1)Cc1ccccc1-2	-0.8	2
5	CC(C)=NNC(=O)CN1C(=O)NC2NC(=O)NC21 (centres undefined)	1.65	0.23
6	CCOC(=O)c1cc(C#N)c(C)nc1N1CCN(C(=O)OCCN2CCN(Cc3cc4c(cc3Cl)OCO4)CC2)CC1	.	-0.455
7	Cn1c(Cc2cccs2)nnc1SCCN1C(=O)c2ccccc2C1=O	1.15	.
8	CC(C)(C)OC(=O)NC1CCN(Cc2c(F)cccc2Cl)CC1	.	0.395
9	NC(=O)c1sc(-c2ccc(Cl)cc2)cc1NC(=O)/C=C/C(=O)O	-0.15	0.26
10	CS(=O)(=O)c1ccc(-n2cc(-c3ccncc3)cn2)cc1	.	2.23

An excerpt from above in order of length of the SMILES, low to high:
entry	SMILES	AID504770	CapD inh
2	COc1ccc2oc(=O)sc2c1	-0.9	0.38
5	CC(C)=NNC(=O)CN1C(=O)NC2NC(=O)NC21 (centres undefined)	1.65	0.23
8	CC(C)(C)OC(=O)NC1CCN(Cc2c(F)cccc2Cl)CC1	.	0.395
4	O=c1[nH]c(CSCCO)nc2c1C1(CCCCC1)Cc1ccccc1-2	-0.8	2

(next part)
entry	SMILES	AID504770	CapD inh
11	CC(CCOC(=O)NNC(=O)c1ccc(F)cc1)c1ccccc1 (centres undefined)	.	-0.65
12	FC(F)(F)c1ccc(-c2cccs2)nc1	-1	28.9
13	CN1CCC(N(C2CC2)S(=O)(=O)c2ccc(NC(=O)C(c3ccccc3)c3ccccc3)cc2)CC1	.	-0.345
14	COc1ccc(NC(=O)C2CCCCN2)cc1OC (centres undefined)	-0.15	.
15	COc1cc2nc(CN3CCN(S(=O)(=O)c4ccc5ccccc5c4)CC3)[nH]c(=O)c2cc1OC	-0.5	.
16	O=C(COC(=O)C1CCCCC1)Nc1ncccn1	1.15	.
17	CCN(CCc1ccccn1)S(=O)(=O)c1ccc(C)c([N+](=O)[O-])c1	.	0.66
18	O=C1c2ccccc2C(=O)N1/N=C/c1ccccc1	-0.15	-0.23
19	C=CCn1c2ccccc2c2nnc(SC(CC)C(=O)Nc3nc4c(s3)CCCC4)nc21 (centres undefined)	1.1	0
20	Cc1nc2ccc(NC(=O)C3CCCN3S(=O)(=O)c3cccs3)cc2s1 (centres undefined)	-1.15	.
21	COc1ccc(C)cc1S(=O)(=O)N(C)CC(N)=O	1.85	0.02
22	CC(=O)OCc1ccc(/C=N/NC(=O)c2ccc3ccccc3c2)o1	.	3.79
23	COc1cc(C=C2C(=O)NC(=O)NC2=O)cc(Cl)c1OCCOc1cccc(C)c1	.	-0.3
24	Clc1cc(Cl)c2nc(-c3ccccc3)c(-c3ccccc3)nc2c1	.	4.89
25	COCCN(CCOC)S(=O)(=O)c1ccc(C(=O)Nc2nc3ccc(OC)cc3s2)cc1	.	0.515
26	COc1ccc2nc(SCC(=O)Nc3cccc(NC(=O)CSc4nc5ccc(OC)cc5[nH]4)n3)[nH]c2c1	.	0.53
27	COc1ccc(-c2cc(C(=O)NCc3cccs3)c(C(F)(F)F)o2)cc1	-0.65	1.84
28	COCCN1C(=O)c2ccccc2C(C(=O)N2CCN(c3ccccn3)CC2)C1c1ccc(F)cc1 (centres undefined)	.	0
29	CN(Cc1ccccc1)C(=O)CCn1c(=O)c2cccn2c2cccnc21	-0.15	8.38
30	c1ccc(Nc2ncnc3sc(-c4ccccc4)cc23)cc1	1.35	80.6
31	Fc1ccc(-c2csc(-c3ccsc3)n2)cc1	0.25	0.685
32	Fc1ccc(N2CCN(Cc3cnc(N4CCOCC4)s3)CC2)cc1	.	-0.43
33	CS(=O)(=O)N(CC(=O)N1CCc2ccccc2C1)c1ccc(F)cc1	-0.45	.
34	c1ccc(Nc2c3c(nc4nncn24)CCC3)cc1	-0.45	-1.35
35	O=C(O)CSCC(=O)N1CCN(c2nc(-c3ccccc3)ns2)CC1	.	-0.335
36	O=C(Nc1ccc(CS(=O)c2ccc(Cl)cc2)cc1)c1ccccc1 (centres undefined)	.	-0.095
37	C/C(CCc1oc2ccc(C)cc2c1-c1ccc(C)o1)=N\O	0.1	0.075
38	O=C(/C=C1\SC(=O)NC1=O)Nc1ccccc1C(=O)O	0	.
39	CCC1CN(C(=O)N2CCC(C(=O)NC)CC2)c2ccccc2O1 (centres undefined)	-0.8	-1.04
40	Cc1ccc(C)c(C(=O)CN2C(=O)c3ccccc3C2=O)c1	-0.25	.
41	COC(=O)c1ccc(N2CCN(c3ccc(F)cc3)CC2)c([N+](=O)[O-])c1	.	-0.49
42	CC(C)CNC(=O)c1ccc(COc2cc(Cl)ccc2Cl)o1	-0.85	-0.105
43	CCOC(=O)c1sc2c(c1C)C(c1cccs1)C1=C(CCCC1=O)N2 (centres undefined)	-0.45	.
44	COc1cccc(N2CCN(c3ncnc4c3cnn4-c3ccc(C)cc3C)CC2)c1	.	-0.055
45	N#CCO/N=C(\c1ccccc1)c1ccncc1	1.5	-0.305
46	Cc1ccc2c(c1)c1c3n2CCN(C(=O)CN2CCN(C(=O)c4ccco4)CC2)C3CCC1 (centres undefined)	-0.55	.
47	O=C(/C=C/c1cccc(F)c1)OCc1c(Cl)nc2sccn12	0.75	-0.23
48	Cc1cc(C(=O)OCC(=O)N2CC(C)CC(C)C2)c(C)o1 (centres undefined)	-1.4	.
49	CCOC(=O)C1CCN(c2cnn(-c3nc4ccccc4s3)c(=O)c2Cl)CC1	0.25	-0.605
50	COc1cccc(NC(=O)c2ccncc2)c1	-0.1	0
51	Cc1ccc(NC(=S)N(CC(N)=O)C(C)C)cc1C	0.35	.
52	Cc1ccc(-n2nc3c(c2NC(=O)c2ccc(S(=O)(=O)N4CCCCC4)cc2)CSC3)c(C)c1	.	-0.05
53	COc1ccc(N=Cc2ccc(-c3ccccc3)o2)cc1	-0.6	1.98
54	O=S(=O)(Nc1cccc(-c2nnco2)c1)c1ccc(F)cc1F	-1.1	-0.2
55	OCCCc1nc2ccccc2[nH]1	0.4	-0.305
56	CCN1C(=O)/C(=C2\SC(=S)N(c3ccc(Br)cc3)C2=O)c2ccccc21	.	-0.655
57	Cc1ccc(CN2CCSc3ccc(C(=O)NCCCN4CCOCC4)cc32)cc1	-0.8	83.2
58	Cc1ccc2c(c1)nnn2C1CCN(C(=O)N(c2ccccc2)c2ccccc2)CC1	-0.4	.
59	Cc1cc(-c2ccccc2)nc(Cl)c1S(=O)(=O)Cc1ccc(Cl)cc1	.	0.69
60	CN(Cc1ccccc1)S(C)(=O)=O	-0.65	-0.365

Four entries from above, with two lines to a compound.
Every second line gives: AID504770 | CapD inh
(21) COc1ccc(C)cc1S(=O)(=O)N(C)CC(N)=O
  1.85 | 0.02
(22) CC(=O)OCc1ccc(/C=N/NC(=O)c2ccc3ccccc3c2)o1
  . | 3.79
(23) COc1cc(C=C2C(=O)NC(=O)NC2=O)cc(Cl)c1OCCOc1cccc(C)c1
  . | -0.3
(24) Clc1cc(Cl)c2nc(-c3ccccc3)c(-c3ccccc3)nc2c1
  . | 4.89

Going on with the list.
entry	SMILES	AID504770	CapD inh
61	OCCNc1ncnc2c1c(-c1ccccc1)cn2-c1ccccc1	-0.5	0.475
62	CNC1(c2nnnn2-c2cccc(Cl)c2)CCCCC1	.	-0.315
63	NS(=O)(=O)c1ccc(CCn2c(-c3ccc(-c4ccccc4)cc3)csc2=Nc2ccccc2)cc1	.	0.395
64	C=CCn1c(CCCO)n[nH]c1=S	-0.15	0.1
65	Cn1c(O)c(C=Nc2ccccc2)c(=O)[nH]c1=S	1.35	0.205
66	OCCNc1nc(-c2ccccc2)c(-c2ccccc2)s1	1	0.525
67	CC(C)CC(=O)Nc1ccc(-c2cn3cccnc3n2)cc1	-0.65	.
68	O=C(CN1C(=O)c2ccccc2C1=O)NCc1ccccn1	-0.25	0.1
69	NNC(=O)C1(O)c2ccccc2-c2ccccc21	-0.1	.
70	Cc1ccc(-c2nn(CCC(=O)O)cc2CCC(=O)O)cc1	-2.05	.
71	O=C(Nc1ccccc1Cl)c1ccc(F)c(S(=O)(=O)N2CCN(c3ccccc3Cl)CC2)c1	.	-0.3
72	O=c1[nH]c(-c2cccnc2)nc2ccccc12	2	-0.305
73	Cc1onc(-c2ccccc2Cl)c1C(=O)Nc1sc2c(c1C#N)CCCC2	.	-0.22
74	Cn1c2ccccc2c2nnc(SCC(=O)OCN3C(=O)c4ccccc4C3=O)nc21	-0.9	0.105
75	CCOC(=O)c1c(NC(=O)CSc2nnc(N)s2)sc2c1CCCC2	-0.55	.
76	CCOC(=O)c1c(CN2CCOCC2)n(C)c2ccc(OC)c(S(=O)(=O)c3ccccc3)c12	.	1.29
77	Cc1cc(Br)c(NC(=O)C2C(C)(C)C2(C)C)c(Br)c1	0.2	0.395
78	Cc1ccc2c(c1)NC(SCC(=O)NC(C)C)=NS2(=O)=O	0.25	-0.095
79	COC(=O)CN(C#N)c1nc(SC)nc(N(C)C)n1	0.25	.
80	COc1cccc(NC2=C(C#N)C(=O)NC(c3cccc(OC)c3O)S2)c1 (centres undefined)	-0.45	3.13
81	C=Cn1c(C(=O)O)ccc1-c1ccc(OC)cc1	-0.2	.
82	OC(c1cn2cc(-c3ccccc3)nc2s1)(C(F)(F)F)C(F)(F)F	-0.45	.
83	C=CCNC(=O)c1ccc(-c2nc(-c3ccc(Cl)c(Cl)c3)cs2)cc1	.	3.81
84	N#Cc1c(F)cccc1N1CCN(c2ccc(O)cc2)CC1	-0.35	.
85	COc1ccc(C(=O)N2CCOC23CCN(c2ncccn2)CC3)cc1	.	4.54
86	COc1ccccc1CNCCc1ccccc1	-0.8	.
87	CC(Sc1ncc(S(=O)(=O)c2ccccc2)c(N)n1)C(=O)Nc1ccccc1 (centres undefined)	-0.15	-0.22
88	Clc1ccc(COn2c(-c3ccccc3)nc3ccccc32)cc1Cl	.	-0.945
89	CCOc1ccc(OCC)c(S(=O)(=O)n2cnc3cc(C)c(C)cc32)c1	-0.35	.
90	C=CCn1c(SCC(=O)NC(C)(C)C)nnc1-c1ccco1	-0.25	-0.225
91	N#Cc1ccc(S(=O)(=O)N2CCCCC2)cc1	.	-0.26
92	Oc1cccc(C=Nc2ccc(OC(F)(F)F)cc2)c1O	1.3	-1.32
93	Cc1cc(/C=N/NC(=O)c2ccc3nonc3c2)cc(C)c1O	.	-1.06
94	COc1ccc(-c2csc(NC(C)=O)n2)cc1C	0.85	-0.2
95	CN(C)c1ccc(NC(=O)Nc2ccc(OC(F)(F)F)cc2)cc1	0.45	-0.43
96	CCNS(=O)(=O)c1ccc(NC(=O)Nc2cccc(OC)c2)cc1	-0.95	-0.095
97	COC(=O)c1ccc(/C=N/OCC(=O)N(C)C2CCCCC2)cc1	-0.8	.
98	Cc1ccc2cccc(Cl)c2n1	.	-0.125
99	CCSC1=C(C#N)[C@H](c2ccccc2[N+](=O)[O-])C(C(C)=O)=C(C)N1	.	4.58
100	COc1ccc(CCNC(=O)CSc2nc3ccccc3c(=O)n2CCCC(=O)NCc2ccccc2)cc1OC	.	-0.82
101	Cc1nc2ccccc2c2oc(C(=O)NC3CCN(Cc4ccccc4)CC3)cc12	-0.55	1.63
102	COC(=O)C1=C(N)OC2=C(C(=O)CC(c3ccccc3)C2)C1c1cccc(OC)c1 (centres undefined)	.	0.065
103	CN1CCC(N(C2CC2)S(=O)(=O)c2ccc(NC(=O)c3ccco3)cc2)CC1	.	-0.245
104	CCC(=O)Nc1ccc2nc(C)n(Cc3ccccc3)c(=O)c2c1	-0.05	.
105	C=CCN1C(=O)CC(Nc2ccc(F)cc2)C1=O (centres undefined)	-0.55	-0.01
106	COc1ccc(-c2[nH]nc3c2C(c2ccc(OC)c(OC)c2OC)C(C#N)=C(N)O3)cc1OC (centres undefined)	.	-0.395
107	CC1CCN(S(=O)(=O)c2ccc3c(ccn3CCC(=O)NC(C)C)c2)CC1	0.4	0.89
108	COc1ccc(-c2oc3ncn(CCO)c(=N)c3c2-c2ccc(OC)cc2)cc1	-0.05	-0.42
109	COCc1cc(C)nc2sc(C(=O)c3ccc(Cl)cc3Cl)c(N)c12	.	-0.02
110	OCCN1CCN(c2nc3ccc(Cl)cc3s2)CC1	.	-0.67

(further entries)
entry	SMILES	AID504770	CapD inh
111	O=C(CN1NS(=O)(=O)c2ccccc2C1=O)Nc1ccccc1OC(F)F	-0.55	.
112	C=C1C2(C(N)=O)CCC(C2)C1(C)C (centres undefined)	-0.05	-0.015
113	CSC(=NCC1CC1)NC(C)(C)C	-0.85	-0.795
114	Cc1ccc(N2C(=O)NC(=O)/C(=C\c3ccc(OC(C)C(=O)O)cc3)C2=O)cc1C (centres undefined)	.	-1.35
115	CN1CCc2cc(CN(CC3CCCO3)C(=O)c3ccccc3)ccc21 (centres undefined)	.	-0.165
116	Nn1c(SCC(=O)NC2CCCC2)nnc1C1COc2ccccc2O1 (centres undefined)	-0.35	.
117	C=CCn1c(=O)n(CC=C)c2cc3n[nH]nc3cc21	-0.45	1.35
118	CC(C)c1cc(C(C)C)c(N)c(C(C)C)c1	0.25	-0.135
119	COc1ccc(N2CC(C(=O)N/N=C/c3ccccc3)CC2=O)cc1 (centres undefined)	0.5	.
